Screening results deposited in PubChem by several laboratories.
GSK3B inh – human GSK3beta kinase inhibition; GST-GSK3beta kinase, ADP-Glo luminescence, 60 min; hits give low values; activity score (negative = inhibition), % at 10 µM; 300,000 tested, 0.038% active; AID 2097; P49841;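 active = more than half of replicate wells score below -50%, meaning over 50% inhibition versus plate controls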;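 also: 0% = median DMSO wells and -100% = median GW8510 positive control wells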
Target sequence (P49841 whole entry, looked up): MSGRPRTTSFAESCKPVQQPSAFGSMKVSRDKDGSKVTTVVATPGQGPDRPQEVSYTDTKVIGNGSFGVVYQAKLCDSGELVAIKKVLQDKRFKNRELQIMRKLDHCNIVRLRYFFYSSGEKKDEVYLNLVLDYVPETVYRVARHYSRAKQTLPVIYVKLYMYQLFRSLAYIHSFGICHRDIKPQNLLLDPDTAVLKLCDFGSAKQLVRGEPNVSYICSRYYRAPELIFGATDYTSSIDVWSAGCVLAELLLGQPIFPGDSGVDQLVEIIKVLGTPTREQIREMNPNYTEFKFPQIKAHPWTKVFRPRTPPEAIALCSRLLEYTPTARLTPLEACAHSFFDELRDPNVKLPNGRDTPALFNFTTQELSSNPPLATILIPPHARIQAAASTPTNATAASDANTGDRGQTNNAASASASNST
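Test system: GST-fused GSK3beta enzyme, cell-free | Quantity: 1.6 ng GST-GSK3beta enzyme per well | Reagent: 25 µM ATP with peptide substrate | Schedule: 60 min enzyme reaction, room temperature | Signal: Luminescent ADP-Glo measurement of ADP formed | Read-out basis: Score relative to plate controls | Control set: DMSO and 20 µM GW8510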
AI-2 QS mod – modulators of Vibrio harveyi AI-2 quorum sensing system. Vibrio harveyi JMH597 AI-2 luminescence/OD600 ratio, 9 h; hits give low values; strain lacks LuxN and CqsS sensors; 0 = neutral-control median. activity change, % at 7.5 µM. 300,000 tested, 0.4% active; in the data active = activity change below about -75%, passing the limit was not always enough;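 also: luminescence divided by OD600 gain over 9 h not by final OD600 alone; inactives centre near 13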
aSyn UTR inh – 5' untranslated region of α-synuclein, MLPCN primary screen; alpha-synuclein 5'UTR reporter, inhibitor activity; inhibition, % (tested at 7.5 µM); 300,000 tested, 0.82% active; in the data active = inhibition above about 60%;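 also: H4 neuroglioblastoma cells stably carrying SNCA 5'UTR luciferase fusion; 0% = DMSO wells and 100% = positive control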
IEC-6 tox – IEC-6 cytotoxicity, counter-screen for KLF5 inhibitors. AID 1825. inhibition, % at 5 µM. 290,000 tested, 0.78% active. luminescence viability; in the data active = inhibition above about 22%;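 also: 0% = plate median of test compound wells and 100% = cytotoxic reference compound wells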
KLF5 inhibitor – kruppel-like factor 5 inhibition; DLD-1 KLF5 promoter-luciferase reporter, luminescence; 290,000 tested, 0.23% active; inhibition, % at 5 µM;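 active = inhibition above a per-plate limit of that plate's mean compound inhibition plus 3 SD, cut at about 60% in these data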;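 also: 0% = DMSO wells and 100% = LY294002 at 200 µM; higher means less KLF5 promoter-driven luciferase light; inactives centre near -14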
GSK3 alpha inh – blocks human GSK-3 alpha kinase; P49840; ADP-Glo luminescence, 60 min; inhibition, % at 10 µM; 320,000 tested, 0.1% active;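 in the data active = inhibition above about 50%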;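 also: GST-tagged GSK-3 alpha with peptide substrate and 25 µM ATP; 0% = DMSO neutral wells and 100% = GW8510 positive control wells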
Target sequence (P49840 whole entry, looked up): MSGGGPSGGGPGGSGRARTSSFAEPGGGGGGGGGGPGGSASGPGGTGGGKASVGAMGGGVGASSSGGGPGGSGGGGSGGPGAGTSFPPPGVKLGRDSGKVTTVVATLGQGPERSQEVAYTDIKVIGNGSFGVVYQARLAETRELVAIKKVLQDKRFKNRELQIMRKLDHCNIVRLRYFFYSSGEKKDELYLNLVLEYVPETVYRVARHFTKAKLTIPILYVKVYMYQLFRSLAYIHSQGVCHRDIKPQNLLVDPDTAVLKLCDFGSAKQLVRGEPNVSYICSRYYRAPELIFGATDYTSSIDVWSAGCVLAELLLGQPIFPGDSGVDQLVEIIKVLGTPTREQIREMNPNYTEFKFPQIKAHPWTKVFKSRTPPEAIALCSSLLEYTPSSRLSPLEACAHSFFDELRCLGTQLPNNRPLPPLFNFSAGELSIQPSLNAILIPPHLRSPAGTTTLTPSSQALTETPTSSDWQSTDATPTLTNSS
HSP90 refold inh – inhibitors of HSP90 luciferase refolding in rabbit reticulocyte lysate; inhibition, % at 5.6 µM; 290,000 tested, 0.91% active; luciferase refolding luminescence, 3 h; AID 1789;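 active = inhibition above the screen-wide mean plus 3 SD, computed separately per campaign, cut at about 16% in these data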;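 also: 0% = DMSO wells and 100% = 60 µM geldanamycin wells; inhibitors lower the luminescence because luciferase stays unfolded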
HSF1 inh – HSF1 inhibition. AID 2098. 300,000 tested, 0.77% active. activity change, negative = inhibition, % at 7.5 µM (by protocol). NIH3T3-HGL HSE-luciferase, MG132-induced, luminescence 8 h; hits give low values;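 active = more than half of replicate wells show activity change below -50%, luminescence cut by over half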;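 also: luciferase reports HSF-1 transcriptional activity via heat shock element; 0% = median of DMSO wells and -100% = zero luminescence signal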
HSF-1 act – increases HSF-1 driven luciferase reporter signal; NIH3T3-HGL HSF-1 luciferase reporter, MG132, 8 h; 100% = twice DMSO control signal; activation, % at 9 µM; 300,000 tested, 1.7% active; AID 504408;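 active = mean replicate activation of at least 50% with a set share of replicates each reaching 50%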;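 also: 0% = median of the neutral control wells and 100% = twice that signal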
* hit, by the source's call; nt = no result given; & = joins results of further samples. Some of the compounds tested, so the mix of outcomes need not match the whole.

Values in the order: AI-2 QS mod	HSF1 inh	KLF5 inhibitor	aSyn UTR inh	GSK3B inh	HSF-1 act	HSP90 refold inh	IEC-6 tox	GSK3 alpha inh
- CC[C@H]1C2C[C@H]3[C@@H]4N(C)c5ccccc5C45C[C@H](C2[C@H]5O)N3[C@@H]1O (some centres undefined)
  nt	nt	nt	nt	nt	nt	nt	nt	-0.3
- C=CCC1(CN2CCCCCC2=O)C(=O)NC(=O)NC1=O
  18.3	-4.5	-7.8	8.2	-0.9	-17.9	-5.0	-0.2	-0.7
- CCOc1ccc(-n2c(O)c(C=Nc3ccc(N(CC)CC)cc3)c(=O)[nH]c2=O)cc1
  4.8	-13.9	-18.3	-6.0	2.9	-18.4	-0.8	-2.7	5.1
- OCc1cnc[nH]1
  14.4	-2.5	4.0	-23.7	3.1	5.0	6.3	-5.1	-3.7
- Nc1ccc(C2(c3ccc(N)cc3)CN3CCC2CC3)cc1
  7.5	-4.1	6.0	8.9	0.1	-9.2	4.3	4.5	-0.6
- CCCN(CCC)C1Cc2cc(OC)c(OC)cc2C1
  8.8	-3.9	nt	-17.3	-1.0	-3.6	nt	nt	-0.5
- CN(C)CCOC(=O)c1cn(Cc2ccccc2)c2ccccc12
  -17.4	-0.9	-14.0	5.3	-5.3	-1.7	-3.5	-0.4	11.0
- COc1ccc(CCN)cc1O
  20.0	-0.8	nt	-1.9	1.3	-2.8	nt	nt	-1.9
- O=c1[nH]c(=O)n(CCc2ccccc2)c(O)c1C=NCCCn1ccnc1
  23.6	2.3	-0.1	10.4	1.2	18.0	2.4	1.3	1.9
- COc1ccc(C(=O)OC2CC[C@@]3(C)C4CCC5[C@]6(O)CC(O)[C@@]7(O)C(CN8CC(C)CCC8[C@@]7(C)O)[C@]6(O)C[C@@]53O[C@]24O)cc1OC (some centres undefined)
  2.5	-12.6	-2.9	7.2	0.4	-2.3	1.1	-2.0	-3.9
- CCOC(C(=O)OCC(O)CN(CC)CC)(c1ccccc1)c1ccccc1 (centres undefined)
  3.6	1.2	-33.0	-13.2	-0.9	-13.6	-1.2	0.9	-1.4
- C[C@@H]1CC[C@@]2(NC1)O[C@H]1C[C@H]3[C@@H]4CC=C5C[C@@H](O)CC[C@]5(C)[C@H]4CC[C@]3(C)[C@H]1[C@@H]2C
  -6.0	-2.2	-0.4	-10.7	-5.5	-17.0	2.5	-1.7	-1.3
- c1cc(C2N3CCCN2CC3)ccn1 (centres undefined)
  -1.7	3.1	-30.0	-16.6	-0.8	15.1	0.1	3.6	4.1
- COc1ccc2c(c1OC)CN1CCc3cc4c(cc3[C@H]1C2)OCO4
  nt	nt	nt	nt	nt	nt	nt	nt	-3.2
- Clc1cccc(N2CCNCC2)c1
  9.3	1.7	nt	-5.5	0.0	-7.5	nt	nt	-1.0

Next section, overlapping the part above by 2 compounds.
Values in the order: AI-2 QS mod	HSF1 inh	KLF5 inhibitor	aSyn UTR inh	GSK3B inh	HSF-1 act	HSP90 refold inh	IEC-6 tox	GSK3 alpha inh
- COc1ccc2c(c1OC)CN1CCc3cc4c(cc3[C@H]1C2)OCO4
  nt	nt	nt	nt	nt	nt	nt	nt	-3.2
- Clc1cccc(N2CCNCC2)c1
  9.3	1.7	nt	-5.5	0.0	-7.5	nt	nt	-1.0
- CCCCCCn1c(O)c(C(C)=NC)c(=O)[nH]c1=O
  -1.4	18.0	-6.2	-26.1	0.8	38.5	1.6	6.9	2.0
- Oc1ccc2c3c1O[C@H]1[C@@H](O)CC[C@@]4(O)[C@@H](C2)N(CC2CCC2)CC[C@]314
  19.1	-2.6	nt	4.8	2.2	-4.1	nt	nt	0.7&-2.3
- CCCN(CCC)C1CCc2cccc(O)c2C1 (centres undefined)
  4.4	6.9	nt	11.6	0.3	-0.7	nt	nt	-1.7
- CCCCNC(=O)Nc1ccc(C(O)(C(=O)OCC)C(F)(F)F)cc1 (centres undefined)
  6.4	0.7	-15.2	-1.0	-5.1	-4.3	-0.5	-16.0	-1.9
- CC(=O)[C@@]1(O)CCC2C3CC=C4C[C@@H](O)CC[C@]4(C)C3CC[C@@]21C (some centres undefined)
  nt	nt	nt	nt	nt	nt	nt	nt	-3.7
- O=c1[nH]c(=O)n(Cc2ccco2)c(O)c1C=NCCN1CCOCC1
  1.3	0.2	-34.1	15.0	-3.9	3.3	-2.7	1.1	-0.7
- CN1CCN(C(=O)O[C@H]2c3nccnc3C(=O)N2c2ccc(Cl)cn2)CC1
  2.6	-6.4	-37.8	15.9	-0.3	19.7	4.4	-1.0	-0.2
- COC1=CC(=O)O[C@@H](/C=C/c2ccccc2)C1
  nt	nt	nt	nt	nt	nt	nt	nt	-0.5
- COc1cc2nc(N3CCN(C(=O)C4CCCO4)CC3)nc(N)c2cc1OC (centres undefined)
  20.9&16.5	2.3&-2.1	-5.7&-20.9&1.2	-8.4&-23.8	-0.9&0.6	-6.6&-2.5	-0.6&5.4&5.1	4.1&9.6&1.0	2.4&-3.7
- COc1ccc(CN2C(=O)CC(=O)NC2=O)cc1
  24.6	0.2	-7.2	14.4	-1.6	-5.4	-1.9	-1.4	4.5
- S=C(NC1CCCCC1)N1CCC(c2cnc[nH]2)CC1
  13.1	-7.3	nt	-26.5	2.9	-10.7	nt	nt	-3.5
- CCCCn1c(O)c(C=NCCN2CCCCC2)c(=O)[nH]c1=O
  10.6	-1.0	-17.5	22.4	1.2	-18.3	2.6	-4.7	0.5
- CCCCCCn1c(O)c(C=Nc2c(C)n(C)n(-c3ccccc3)c2=O)c(=O)[nH]c1=O
  13.0	-5.8	-9.6	1.9	1.9	3.8	-1.1	-5.3	2.0
- c1ccc2cc(CC3=NCCN3)ccc2c1
  3.8	-1.2	-21.6	16.5	-1.4	-1.0	0.9	-3.6	-0.9
- CCN(CC)C(=O)N[C@H]1C[C@@H]2c3cccc4[nH]cc(c34)C[C@H]2N(C)C1
  18.0	-5.2	-21.8	-2.4	5.9	-11.4	0.8	2.0	-1.9

Arranged by SMILES length (falling): some entries from above.
Values in the order: AI-2 QS mod	HSF1 inh	KLF5 inhibitor	aSyn UTR inh	GSK3B inh	HSF-1 act	HSP90 refold inh	IEC-6 tox	GSK3 alpha inh
- Oc1ccc2c3c1O[C@H]1[C@@H](O)CC[C@@]4(O)[C@@H](C2)N(CC2CCC2)CC[C@]314
  19.1	-2.6	nt	4.8	2.2	-4.1	nt	nt	0.7&-2.3
- CC(=O)[C@@]1(O)CCC2C3CC=C4C[C@@H](O)CC[C@]4(C)C3CC[C@@]21C (some centres undefined)
  nt	nt	nt	nt	nt	nt	nt	nt	-3.7
- CCCCCCn1c(O)c(C=Nc2c(C)n(C)n(-c3ccccc3)c2=O)c(=O)[nH]c1=O
  13.0	-5.8	-9.6	1.9	1.9	3.8	-1.1	-5.3	2.0
- CN1CCN(C(=O)O[C@H]2c3nccnc3C(=O)N2c2ccc(Cl)cn2)CC1
  2.6	-6.4	-37.8	15.9	-0.3	19.7	4.4	-1.0	-0.2
- COc1cc2nc(N3CCN(C(=O)C4CCCO4)CC3)nc(N)c2cc1OC (centres undefined)
  20.9&16.5	2.3&-2.1	-5.7&-20.9&1.2	-8.4&-23.8	-0.9&0.6	-6.6&-2.5	-0.6&5.4&5.1	4.1&9.6&1.0	2.4&-3.7
- CCCCNC(=O)Nc1ccc(C(O)(C(=O)OCC)C(F)(F)F)cc1 (centres undefined)
  6.4	0.7	-15.2	-1.0	-5.1	-4.3	-0.5	-16.0	-1.9
- CCCCn1c(O)c(C=NCCN2CCCCC2)c(=O)[nH]c1=O
  10.6	-1.0	-17.5	22.4	1.2	-18.3	2.6	-4.7	0.5
- COC1=CC(=O)O[C@@H](/C=C/c2ccccc2)C1
  nt	nt	nt	nt	nt	nt	nt	nt	-0.5
- COc1ccc(CN2C(=O)CC(=O)NC2=O)cc1
  24.6	0.2	-7.2	14.4	-1.6	-5.4	-1.9	-1.4	4.5
- c1ccc2cc(CC3=NCCN3)ccc2c1
  3.8	-1.2	-21.6	16.5	-1.4	-1.0	0.9	-3.6	-0.9

New compounds follow
Values in the order: AI-2 QS mod	HSF1 inh	KLF5 inhibitor	aSyn UTR inh	GSK3B inh	HSF-1 act	HSP90 refold inh	IEC-6 tox	GSK3 alpha inh
- CCOC(=O)c1cc2c(cn1)[nH]c1ccccc12
  16.4	7.4	-56.1	-142.5	-2.1	0.9	-2.6	3.4	-1.1
- NCC1(c2ccc3c(c2)OCCO3)CCCC1
  12.6	-5.8	2.7	-4.2	0.2	-1.9	2.1	0.9	-1.2
- O=P(c1ccccc1)(c1ccccc1)N1CCCCC1
  24.2	1.6	2.5	-9.2	0.3	3.7	-1.2	-7.5	0.2
- C=CCN1CCC2(C)c3cc(O)ccc3CC1C2C (centres undefined)
  18.9	0.5	nt	11.0	-1.0	-6.5	nt	nt	-1.5
- CCCC(=O)OCC[N+](C)(C)C
  13.4	-3.1	6.8	-14.6	-1.3	-3.6	-2.0	1.5	-1.6
- COc1cc2nc(N3CCN(C(=O)[C@@H]4CCCO4)CC3)nc(N)c2cc1OC
  12.5	-4.1	-16.5	-0.4	3.3	-7.8	0.2	-0.7	-1.6
- CC(=C1C(=O)c2ccccc2C1=O)N1CCN(CCN=Cc2c(O)n(C)c(=O)n(C)c2=O)CC1
  34.1	0.9	-4.3	3.3	-4.0	-23.1	-1.1	8.2	1.9
- c1ccc2c3c([nH]c2c1)CNCC3
  18.1	-2.1	-0.1	-20.2	3.4	-7.6	3.7	-0.1	0.4
- c1ccc2c(c1)[nH]c1cnccc12
  13.3	-3.5	-2.2	-11.0	-1.3	-18.9	1.8	1.1	0.1
